# From PubChem BioAssay
# FGF22 binding = binders of human FGF22 protein, primary screen, FGF22 synaptogenesis inhibitor project, biophysical, thermal shift, single point; Fibroblast growth factor 22 (Homo sapiens), Q9HCT0; recombinant FGF22 thermal shift, SYPRO orange fluorescence; percent of sucrose octasulfate shift, DMSO zero; calls only at 9.99 µM; 340,000 compounds, 1.5% hits; AID 651658, 2012;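 active = melting point raised past a set limit in the mean and every replicate; three in four hits are not shown here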
# Target sequence (Q9HCT0 whole entry, looked up): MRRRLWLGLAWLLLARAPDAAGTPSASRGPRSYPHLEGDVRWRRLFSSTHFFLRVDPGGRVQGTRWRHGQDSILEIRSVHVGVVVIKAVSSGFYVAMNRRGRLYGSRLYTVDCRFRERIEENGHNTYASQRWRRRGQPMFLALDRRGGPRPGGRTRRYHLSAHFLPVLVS
# Calls only; i = inactive. An excerpt; the hit share may differ from the screen's.
# The opening four entries as a preview:
SMILES	FGF22 binding
O=C(NCC1CC1)[C@H]1[C@H](CO)[C@H]2Cn3c(ccc(-c4ccncc4)c3=O)[C@@H]1N2Cc1nccs1	i
COc1ccccc1CN(C)C[C@H]1OCc2cnnn2CCCC(=O)N([C@H](C)CO)C[C@H]1C	i
CN1C(=O)c2cc(NC(=O)c3ccccc3Cl)ccc2OC[C@@H]2O[C@@H](CC(=O)O)CC[C@@H]21	i
Cc1cc(C(=O)Nc2cccc3c2O[C@H](CN(C)C(=O)Nc2c(C)noc2C)[C@@H](C)CN([C@@H](C)CO)C3=O)n(C)n1	i

# The listing, repeating the preview:
SMILES	FGF22 binding
O=C(NCC1CC1)[C@H]1[C@H](CO)[C@H]2Cn3c(ccc(-c4ccncc4)c3=O)[C@@H]1N2Cc1nccs1	i
COc1ccccc1CN(C)C[C@H]1OCc2cnnn2CCCC(=O)N([C@H](C)CO)C[C@H]1C	i
CN1C(=O)c2cc(NC(=O)c3ccccc3Cl)ccc2OC[C@@H]2O[C@@H](CC(=O)O)CC[C@@H]21	i
Cc1cc(C(=O)Nc2cccc3c2O[C@H](CN(C)C(=O)Nc2c(C)noc2C)[C@@H](C)CN([C@@H](C)CO)C3=O)n(C)n1	i
C[C@@H]1CN([C@H](C)CO)C(=O)c2cc(NS(=O)(=O)c3ccccc3)ccc2O[C@H]1CN(C)Cc1ccccc1	i
COc1ccc(S(=O)(=O)N(C)C[C@H]2Oc3ncc(C#CC4(O)CCCC4)cc3C(=O)N([C@@H](C)CO)C[C@H]2C)cc1	i
C[C@H]1CN([C@@H](C)CO)C(=O)c2cc(NS(=O)(=O)c3cn(C)cn3)ccc2O[C@H]1CN(C)Cc1ccc2c(c1)OCO2	i
C[C@@H]1CN([C@@H](C)CO)C(=O)Cc2cc(NC(=O)C3CCCCC3)ccc2O[C@@H]1CN(C)CC1CC1	i
Cc1cc(C(=O)Nc2cccc3c2O[C@@H](CN(C)Cc2ccccc2)[C@H](C)CN([C@@H](C)CO)C3=O)n(C)n1	i
COC(=O)[C@]12C[C@H](CC(=O)NCc3ccc(OC)c(OC)c3)C(=O)N(Cc3ccc4c(c3)OCO4)C1=C[C@H](COCc1ccccc1)O[C@@H]2C	i

# The list goes on.
SMILES	FGF22 binding
O=c1[nH]c(=O)n(C2OC(CO)C(O)C(O)C2O)cc1F (stereo not drawn)	i
C[C@H]1CCCCO[C@H](CN(C)C)[C@@H](C)CN([C@@H](C)CO)C(=O)c2cc(NC(=O)CCCCCC(=O)Nc3ccccc3N)ccc2O1	i
CO[C@@H]1CN(C)C(=O)c2ccc(NC(=O)Nc3ccccc3)cc2OC[C@@H](C)N(C(=O)CN(C)C)C[C@@H]1C	i
O=C(NC1CCCCC1)N[C@H]1CC[C@@H](CCNS(=O)(=O)c2ccccc2)O[C@H]1CO	i
Cc1noc(C)c1NC(=O)N(C)C[C@@H]1Oc2ccc(N(C)C)cc2C(=O)N([C@@H](C)CO)C[C@@H]1C	i
O=C(C[C@@H]1CC[C@@H](NC(=O)c2ccccn2)[C@@H](CO)O1)NCc1cccc(F)c1	i
C[C@H](CO)N1C[C@H](C)[C@H](CN(C)Cc2ccc3c(c2)OCO3)Oc2c(NS(C)(=O)=O)cccc2C1=O	i
C[C@@H]1CCCCO[C@H](CN(C)C(=O)CCCN(C)C)[C@H](C)CN([C@H](C)CO)C(=O)c2cc(NC(=O)C3CCCCC3)ccc2O1	i
O=C(N[C@H]1CC[C@H](CCNS(=O)(=O)c2ccc(Cl)cc2)O[C@H]1CO)c1cccc(F)c1	i
CO[C@H]1CN(C)C(=O)c2ccc(NC(=O)C3CCCC3)cc2OC[C@@H](C)N(C(=O)CC2CC2)C[C@@H]1C	i

# The results go on.
SMILES	FGF22 binding
C[C@H]1CN([C@@H](C)CO)S(=O)(=O)c2ccc(C#CC3CCCC3)cc2O[C@H]1CN(C)C(=O)Cc1ccncc1	i
O=C(Nc1ccccc1F)N1C[C@H]2[C@@H](c3ccccc31)[C@H](CO)N2C(=O)c1ccccn1	i
COc1ccc(S(=O)(=O)N(C)C[C@@H]2Oc3c(NC(=O)c4ccc(-c5nccs5)cc4)cccc3C(=O)N([C@@H](C)CO)C[C@@H]2C)cc1	i
C[C@@H]1CCCCO[C@H](CN(C)C(=O)Nc2ccc(F)cc2)[C@H](C)CN([C@H](C)CO)C(=O)c2cc(NS(=O)(=O)c3ccccc3)ccc2O1	i
C[C@@H]1CCCCO[C@H](CN(C)S(=O)(=O)c2ccc(Cl)cc2)[C@@H](C)CN([C@@H](C)CO)C(=O)c2cc(NC(=O)Nc3ccc(F)cc3)ccc2O1	i
C/C=C/c1cccc(-c2nc(C(=O)NC3Cc4ccccc4C3)cc3c2[C@H](CCO)N(C(C)=O)C3)c1	i
CO[C@@H]1CC[C@H]2CCOc3c(C#N)cccc3C(=O)N(C)C[C@@H](C)C(=O)N(C)C[C@H]1O2	i
CN1C(=O)c2cc(NC(=O)c3cccc(F)c3)ccc2OC[C@@H]2O[C@@H](CC(=O)NC3CCC3)CC[C@@H]21	i
COc1ccc(S(=O)(=O)N(C)C[C@H]2OCCCC[C@@H](C)Oc3ccc(NS(=O)(=O)c4cccs4)cc3C(=O)N([C@@H](C)CO)C[C@@H]2C)cc1	i
C[C@@H]1CN([C@@H](C)CO)C(=O)Cc2cc(NC(=O)Nc3ccccc3)ccc2O[C@H]1CN(C)Cc1ccncc1	i

# (list continues)
SMILES	FGF22 binding
C[C@H]1CCCCO[C@H](CN(C)C(=O)Nc2ccc(F)cc2)[C@@H](C)CN([C@@H](C)CO)C(=O)c2cc(NC(=O)NC3CCCCC3)ccc2O1	i
C[C@@H]1CN([C@H](C)CO)C(=O)c2cc(NC(=O)Cn3cnnn3)ccc2O[C@@H]1CN(C)Cc1ccc(Cl)c(Cl)c1	i
C[C@H]1CN([C@@H](C)CO)C(=O)c2cc(C#CC3CC3)cnc2O[C@@H]1CN(C)C(=O)Nc1ccc(F)cc1	i
C[C@H]1CN([C@@H](C)CO)C(=O)c2cc(NC(=O)C3CC3)ccc2O[C@H]1CN(C)CC1CC1	i
C[C@@H]1CCCCO[C@@H](CN(C)C(=O)C2CCCCC2)[C@H](C)CN([C@H](C)CO)C(=O)c2cc(NC(=O)Nc3cccc4ccccc34)ccc2O1	i
COc1cccc(S(=O)(=O)N[C@@H]2CC[C@H](CC(=O)NCc3ccccc3)O[C@@H]2CO)c1	i
C[C@H](CO)N1C[C@H](C)[C@@H](CN(C)CC2CCCC2)Oc2ncc(C#Cc3cccc(F)c3)cc2C1=O	i
C[C@@H]1CCCCO[C@H](CN(C)C(=O)Nc2ccccc2)[C@@H](C)CN([C@H](C)CO)C(=O)c2cc(NC(=O)Nc3ccc(C(F)(F)F)cc3)ccc2O1	i
CCCC#Cc1ccc([C@H]2[C@H](CO)N3C(=O)CN(C(=O)Nc4cccc(F)c4)C[C@@H]23)cc1	i
C[C@@H]1CCCCO[C@H](CN(C)CC2CCCCC2)[C@@H](C)CN([C@H](C)CO)C(=O)c2cc(NC(=O)C3CCCCC3)ccc2O1	i

# (list continues)
SMILES	FGF22 binding
O=C(C[C@H]1CC[C@H]2[C@@H](COC[C@@H](O)CN2S(=O)(=O)c2ccc(Cl)cc2)O1)N[C@H]1CCN(Cc2ccccc2)C1	i
C[C@@H]1CN([C@H](C)CO)S(=O)(=O)c2ccc(C#CCC3CCCC3)cc2O[C@@H]1CN(C)C(=O)CC1CC1	i
COc1ccc(NC(=O)Nc2ccc3c(c2)C(=O)N([C@H](C)CO)C[C@H](C)[C@H](CN(C)S(C)(=O)=O)OCCCC[C@H](C)O3)cc1	i
O=C(C[C@@H]1C=C[C@@H](NS(=O)(=O)c2cccc(F)c2)[C@@H](CO)O1)N1CCCCC1	i
CCCN(C)C[C@H]1Oc2cc(C#CCN(C)C)ccc2S(=O)(=O)N([C@@H](C)CO)C[C@H]1C	i
CN1CCN(C(=O)C[C@@H]2C[C@H]3c4cc(NC(=O)c5ccc6c(c5)OCO6)ccc4O[C@H]3[C@H](CO)O2)CC1	i
COc1ccc(S(=O)(=O)N[C@H]2CC[C@H](CCn3cc(C(C)C)nn3)O[C@H]2CO)cc1	i
C[C@H](CO)N1C[C@H](C)[C@H](CN(C)Cc2ccc(C(=O)O)cc2)Oc2ccc(NS(C)(=O)=O)cc2CC1=O	i
CCC(=O)N(C)C[C@H]1Oc2cc(Br)ccc2S(=O)(=O)N([C@H](C)CO)C[C@@H]1C	i
CCc1cc2c(nc1CC)CCCN2S(=O)(=O)c1ccc(C)cc1	i

# Other compounds.
SMILES	FGF22 binding
C[C@H]1CN([C@@H](C)CO)C(=O)c2cccc(NC(=O)Nc3ccccc3)c2O[C@@H]1CN(C)C(=O)Nc1ccccc1	i
C[C@H](CO)N1C[C@H](C)[C@@H](CN(C)S(=O)(=O)c2cn(C)cn2)Oc2c(NC(=O)c3ccc(-c4nccs4)cc3)cccc2C1=O	i
CO[C@@H]1CN(C)C(=O)c2ccc(NC(=O)c3ccc(-c4ccccc4)cc3)cc2OC[C@@H](C)NC[C@H]1C	i
CCC(=O)N1CC[C@@H]2[C@@H](CO)Nc3ccc(-c4ccc(F)cc4)cc3[C@@H]21	i
O=C(C[C@H]1CC[C@@H](NC(=O)CN2CCOCC2)[C@H](CO)O1)NCCc1ccccc1	i
O=C(NC1Cc2ccccc2C1)[C@@H]1[C@@H](CO)[C@@H]2Cn3c(cccc3=O)[C@@H]2N1C(=O)C1CCC1	i
C[C@H](CO)N1C[C@H](C)[C@H](CN(C)Cc2ccc(-c3ccccc3)cc2)Oc2ccc(NC(=O)CCCN(C)C)cc2CC1=O	i
C[C@@H]1CN([C@@H](C)CO)C(=O)c2ccccc2-c2ccccc2CO[C@H]1CN(C)S(=O)(=O)c1ccc(C(F)(F)F)cc1	i
CCCN(C)C[C@@H]1Oc2cc(C3=CCCCC3)ccc2S(=O)(=O)N([C@@H](C)CO)C[C@@H]1C	i
CCC(=O)N1CC2(C1)[C@H](c1ccccc1)[C@H](CO)N2Cc1cccc(Cl)c1	i

# Continued.
SMILES	FGF22 binding
O=C(O)C[C@H]1C=C[C@H](NC(=O)Nc2cc(F)ccc2F)[C@H](CO)O1	i
COc1cccc(-c2ccc([C@H]3[C@@H](CO)N4CCCCN(S(=O)(=O)c5cn(C)cn5)C[C@H]34)cc2)c1	i
CC=Cc1ccc2n(c1=O)C[C@H]1[C@H](CO)[C@@H](C(=O)NCC)N(CC3CCOCC3)[C@@H]21 (mixture of isomers)	i
COc1ccc(NC(=O)Nc2cccc3c2O[C@H](CN(C)Cc2ccc4c(c2)OCO4)[C@H](C)CN([C@@H](C)CO)C3=O)cc1	i
C[C@H](O)C#Cc1cnc2c(c1)C(=O)N([C@@H](C)CO)C[C@@H](C)[C@H](CN(C)CC1CCCCC1)O2	i
COc1ccc(NC(=O)Nc2ccc3c(c2)C(=O)N([C@@H](C)CO)C[C@@H](C)[C@@H](CN(C)S(=O)(=O)c2ccc(OC)cc2)OCCCC[C@@H](C)O3)cc1	i
COc1ccc(C#Cc2cccc(-c3nc(C(=O)NCCCN4CCOCC4)cc4c3[C@@H](CCO)N(S(=O)C(C)(C)C)C4)c2)cc1OC (stereo partly drawn)	i
C[C@H](CO)N1C[C@H](C)[C@H](CN(C)C(=O)Nc2ccc(F)cc2)Oc2ccc(NC(=O)Nc3ccc(F)cc3)cc2C1=O	i
O=C(Nc1nccs1)[C@H]1[C@H](CO)[C@H]2Cn3c(cccc3=O)[C@H]2N1C(=O)C1CC1	i
CN(C)C(=O)c1cccc(-c2ccc([C@@H]3[C@H](C#N)N(C(=O)C4CC4)[C@H]3CO)cc2)c1	i

# Following part:
SMILES	FGF22 binding
CO[C@H]1CN(C)C(=O)c2ccc(NC(=O)NC(C)C)cc2OC[C@@H](C)N(C(=O)CN(C)C)C[C@@H]1C	i
CO[C@@H]1CN(C)C(=O)c2ccc(NC(=O)C3CC3)cc2OC[C@@H](C)N(C(=O)Nc2ccc(C(F)(F)F)cc2)C[C@H]1C	i
C[C@H](CO)N1C[C@H](C)[C@@H](CN(C)Cc2ccc(C(F)(F)F)cc2)OCCCC[C@H](C)Oc2ccc(NS(=O)(=O)c3ccc(Cl)cc3)cc2C1=O	i
Cc1ccc(S(=O)(=O)NCC[C@H]2CC[C@@H](NC(=O)CCN3CCCCC3)[C@H](CO)O2)cc1	i
Cc1ccc(S(=O)(=O)N(C)C[C@@H]2OCCCC[C@H](C)Oc3ccc(NS(=O)(=O)c4ccc(F)cc4)cc3C(=O)N([C@@H](C)CO)C[C@@H]2C)cc1	i
CC=Cc1ccc2n(c1=O)C[C@H]1[C@H](CO)[C@@H](C(=O)N(C)C)[C@@H]2N1C(=O)c1ccccc1 (mixture of isomers)	i
C[C@H](CO)N1C[C@H](C)[C@@H](CN(C)Cc2ccc(C(F)(F)F)cc2)OCCCC[C@H](C)Oc2ccc(NC(=O)NC3CCCCC3)cc2C1=O	i
COCCN1Cc2cc(C(=O)OC)c3c(c2C1=O)c1cc(OC)ccc1n3C(=O)c1ccccc1	i
Cc1noc(C)c1S(=O)(=O)Nc1ccc2c(c1)C(=O)N([C@@H](C)CO)C[C@@H](C)[C@H](CN(C)C(=O)Nc1ccc(C(F)(F)F)cc1)OCCCC[C@H](C)O2	i
Cc1noc(C)c1NC(=O)N(C)C[C@@H]1Oc2ccc(NC(=O)CCCN(C)C)cc2C(=O)N([C@H](C)CO)C[C@H]1C	i

# Reformatted: entries from further up
> C[C@@H]1CN([C@H](C)CO)S(=O)(=O)c2ccc(C#CCC3CCCC3)cc2O[C@@H]1CN(C)C(=O)CC1CC1
  FGF22 binding: i
> COc1ccc(NC(=O)Nc2ccc3c(c2)C(=O)N([C@H](C)CO)C[C@H](C)[C@H](CN(C)S(C)(=O)=O)OCCCC[C@H](C)O3)cc1
  FGF22 binding: i
> O=C(C[C@@H]1C=C[C@@H](NS(=O)(=O)c2cccc(F)c2)[C@@H](CO)O1)N1CCCCC1
  FGF22 binding: i
